SARS PLP yeast: SARS-CoV PLP inhibition in yeast | AID 485353 | Potency, µM (top dose mostly 32.9 µM), inactives show at the highest dose activity, positive = growth rescue | S. cerevisiae expressing SARS-CoV PLpro, growth rescue; control for the full effect not named in the record | hit rate 0.19% among 330,000; also: 0% is about no effect; nearly all actives have a fitted effect of over 55% in size; growth read by luminescence after 48 h
Marburg entry inh: inhibitors of Marburg virus binding or cell entry | Marburg virus pseudotyped entry inhibition, cell reporter; control for the full effect not named in the record; about a third of the inactives were read at about 46 µM | Potency, µM (series often up to 37.8 µM), inactives show at the top dose activity change, negative = inhibition, hits mostly inhibitors | hit rate 1.8% among 300,000 | AID 540276; active = well fitted inhibition curve with a large enough effect; inconclusive = small, poorly fitted or top-dose-only effect, or effect the other way; inactive = flat fitted curve, though single readings scatter; tested in HEK293 cells; about a fifth of its hits are not listed in these tables; also: % is scaled to controls: 0 for no effect and ±100 for the full control effect; luciferase read-out
StopGo reporter: FMDV 2A StopGo reporter, luciferase signal | hit rate 1.2% among 410,000 | human cells with a luciferase reporter of 2A StopGo recoding; control for the full effect not named in the record | AID 1159524 | Potency, µM (series often up to 57.9 µM), inactives show at the highest dose signal change, negative = less light; active = well fitted falling curve with a large enough effect; inconclusive = small, poorly fitted or top-dose-only effect; inactive = no such curve, though single readings can be large or run the other way; tested in HEK293T cells; also: % is scaled to controls: 0 for no effect and ±100 for the full control effect; nearly all actives have a fitted effect of over 45% in size; luciferase light after 4 h
Cruzain noTriton: inhibitors of Trypanosoma cruzi cruzain without detergent | P25779 | Potency, µM, for the others: max response, negative = inhibition, usual class: inhibitors | AID 1476 | hit rate 2.3% among 200,000 | purified cruzain, Z-FR-AMC fluorescence, no detergent; active = well fitted curve in the direction sought with a large enough effect; inconclusive = small, poorly fitted or top-dose-only effect, or another doubt; inactive = no such curve, though single readings can be large; an effect the other way counts as inactive or inconclusive;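 also: plate controls were enzyme without inhibitor for no effect and buffer without enzyme for full effect; nearly all actives have a fitted effect of over 40% in size; top concentration of the series not given in the record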
Target sequence (P25779 123-467 limits assumed): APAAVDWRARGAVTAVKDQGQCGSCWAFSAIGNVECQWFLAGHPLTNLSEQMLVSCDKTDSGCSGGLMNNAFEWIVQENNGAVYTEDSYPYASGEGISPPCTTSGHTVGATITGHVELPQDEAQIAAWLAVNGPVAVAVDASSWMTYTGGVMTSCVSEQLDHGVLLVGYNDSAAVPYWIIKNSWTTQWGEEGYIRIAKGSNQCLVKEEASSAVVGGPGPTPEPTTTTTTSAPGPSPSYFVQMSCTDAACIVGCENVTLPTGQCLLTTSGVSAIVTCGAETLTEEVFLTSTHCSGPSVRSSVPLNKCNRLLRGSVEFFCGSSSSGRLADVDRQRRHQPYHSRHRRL
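Detergent-free condition (0.00005% Triton X-100) in acetate buffer pH 5.5 with DTT. 1.5 nM enzyme and compound were pre-mixed 15 min, then 2 uM Z-FR-AMC substrate added; reaction progress from fluorescence change between first and third reads (60 s).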
RE007 growth inh: less growth of the S. pombe RE007 Vpr strain; S. pombe RE007 Vpr strain, BacTiter-Glo ATP luminescence, 24 h; control for the full effect not named in the record; Potency, µM (doses to about 92.2 µM), inactives show top-dose activity change, negative = less growth; hit rate 0.21% among 360,000; active = well fitted falling curve with a large enough effect; inconclusive = small, poorly fitted or top-dose-only effect; inactive = no such curve, though single readings can be large or run the other way;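 also: % is scaled to controls: 0 for no effect and ±100 for the full control effect; nearly all actives have a fitted effect of over 50% in size; the assay follows cell death caused by Vpr and the record does not say whether a fall means rescue or toxicity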
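Fission yeast RE007 carrying one integrated HIV-1 vpr copy, seeded at OD 0.01 in PMG+AL medium with 23 nL pinned compound. Grown 24 h at 30 degrees; viability read by BacTiter-Glo luminescence after 5 min.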
Cruzain Triton: cruzain (T. cruzi) inhibition with detergent. P25779. purified cruzain, Z-FR-AMC fluorescence, 0.01% Triton. Potency, µM, inactives show max response, negative = inhibition, most hits filed as inhibitors. hit rate 0.43% among 200,000. AID 1478; active = well fitted curve in the direction sought with a large enough effect; inconclusive = small, poorly fitted or top-dose-only effect, or another doubt; inactive = no such curve, though single readings can be large; an effect the other way counts as inactive or inconclusive;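 also: plate controls were neutral wells for no effect and buffer without enzyme for full effect; nearly all actives have a fitted effect of over 40% in size; top concentration of the series not given in the record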
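Purified cruzain (1.5 nM final) was preincubated with compounds for 15 min at room temperature in 100 mM sodium acetate pH 5.5, 5 mM DTT, 0.01% Triton X-100. Reaction started with 2 uM Z-FR-AMC; AMC fluorescence change over 60 s gave activity.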
LASV entry inh: inhibitors of Lassa virus binding or cell entry | Lassa virus pseudotype entry inhibition, cell reporter; control for the full effect not named in the record | Potency, µM (doses to about 37.9 µM), for the others: at the top dose activity change, negative = inhibition, actives largely listed as inhibitors | hit rate 1.2% among 300,000 | AID 540256; active means well fitted inhibition curve with a large enough effect; inconclusive means small, poorly fitted or top-dose-only effect, or effect the other way; inactive means flat fitted curve, though single readings scatter; tested in HEK293 cells; also: % is scaled to controls: 0 for no effect and ±100 for the full control effect; nearly all actives have a fitted effect of over 50% in size; luciferase read-out
NS1 inh: blocks influenza NS1 protein function | AID 2326 | Potency, µM (highest dose often 46.1 µM), without a hit: at the highest dose activity, positive = more growth | hit rate 0.4% among 270,000 | S. cerevisiae slowed by influenza A NS1, growth recovery by OD600; also: actives are rising curves; nearly all actives have a fitted effect of over 50% in size
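Growth recovery, yeast-based: influenza A NS1 expressed in S. cerevisiae causes slow growth, and suppressors are detected by OD600. The parent strain without NS1 is used as positive control.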
Starred values were filed as active, the others as inactive; ? = inconclusive; · = not tested or not shown; & = joins results of further samples; [ ] = dose if it differs, or a comment. Unless noted, calls follow the shape of the dose curve; as a rule, active means well fitted rising curve with a large enough effect; inconclusive means small, poorly fitted or top-dose-only effect; inactive means no such curve, though single readings can be large or run the other way. Potency is read from the fitted curve at half-maximal effect.

SMILES	SARS PLP yeast	Marburg entry inh	StopGo reporter	Cruzain noTriton	RE007 growth inh	Cruzain Triton	LASV entry inh	NS1 inh
COc1ccc(NC(=O)CN(C)S(=O)(=O)c2ccc(Br)s2)cc1	2%	7%[46.1 µM]	-4%	·	-6%	·	-4%	10%
O=C1NC2c3ccccc3CC2O1 (stereo not given)	9%	·	-15%	·	1%	·	·	17%
O=C(O)c1sccc1NC(=O)c1c(Cl)cccc1Cl	-1%	?	-3%	·	4%	·	0%[46.1 µM]	-1%
CC(C)CC(=O)Nc1ccc2oc(-c3ccncc3)nc2c1	3%	4%	12%	-2%	-9%	-1.9%	26%	-12%
Fc1ccccc1Sc1ccccc1CNC1=NCCN1	-60%	-8%	-17%	3%	-12%	-4.7%	?	-34%
COC(=O)[C@@]1(Cc2ccc(F)cc2)[C@H]2c3cc(C(=O)N(C)C)n(Cc4ccccc4)c3C[C@H]2CN1C(=O)c1ccccc1	-6%	13µM*	?	?	21%	-5.0%&0.6%	?	13%
Cc1noc(C)c1CCC(=O)N1CCCC(CCC(=O)NCc2ccccc2F)C1 (stereo not given)	-1%	4%[46.1 µM]	4%	·	-3%	·	19%[46.1 µM]	-8%
Cc1ccc(C(=O)c2oc3ccccc3c2NC(=O)COc2ccc(C(C)C)cc2)cc1	·	0%[46.1 µM]	-2%	4%	·	-0.8%	-5%[46.1 µM]	·
CN(C(=O)CSC1=NC2C(N=N1)c1cc(Br)ccc1N2C)C1CCCCC1 (stereo not given)	0%	9%[46.1 µM]	-1%	·	12%	·	26%[46.1 µM]	5%
CC(C)(C)c1ccc(NC(=O)N2CCCN(c3c(Cl)cncc3Cl)CC2)cc1	1%	?	?	·	-12%	·	?	-3%
O=C(OCC(=O)N1CCN(C(=O)c2ccco2)CC1)c1ccccc1C(=O)c1ccccc1	0%	-1%&-1%	?	6%	-8%	1.8%	-19%	-1%
CCOC(=O)CC(NC(=O)c1cc2c(=O)n3cccc(C)c3nc2s1)c1ccc(OCC)c(OC)c1 (stereo not given)	·	-20%[46.1 µM]	3%	?	·	-4.6%	4%[46.1 µM]	·
N/C(=N\OC(=O)c1ccc(Cl)c(Cl)c1)c1ccccn1	-9%	?	-53%	-5%	-7%	1.9%	?	-130%
Cc1cccc(NC(=O)C2CCCN(S(=O)(=O)c3ccc4[nH]c(=O)ccc4c3)C2)c1 (stereo not given)	0%	·	?	·	-5%	·	·	7%
Cc1ccc(S(=O)(=O)Nc2ccc(S(=O)(=O)NC(C)(C)C)cc2)cc1	-11%	-26%	11%	0%	1%	-0.4%	-24%	-2%
CC(C(=O)Nc1cc([N+](=O)[O-])ccc1Cl)N1CCN(c2ccccc2)CC1 (stereo not given)	1%	13%[46.1 µM]	12%	1%	7%	-2.4%	-1%[46.1 µM]	-2%
COc1ccc(-c2nnc(C3CCN(C(=O)c4ccccc4F)CC3)o2)cc1	·	11%[46.1 µM]	?	-11%	·	-3.9%	10%[46.1 µM]	·
CS(=O)(=O)N(Cc1ccccc1)c1ccc(C(=O)NCc2ccccc2)cc1	-3%	0%	-11%	-3%	19%	-5.5%	?	-2%
CCOC(=O)CSc1ncc(OC)c(=O)[nH]1	3%	-29%	-14%	6%	17%	1.1%	0%	10%
COC(=O)c1cc2ccccc2c(=O)s1	-10%	20%	-6%	-17%	?	0.8%	-2%	-12%
CN(C)CCCN(C(=O)c1cc2ccccc2oc1=O)c1nc2c(F)cccc2s1	16%	0%	8%	0%	22%	-2.0%	-3%	12%
COc1cc(Cl)cc(C=O)c1OCC(=O)O	-2%	-3%	-1%	·	16%	·	-9%	3%
Cc1cccc(C)c1NC(=O)Cn1c(=O)n(CCCC(=O)NC2CCN(Cc3ccccc3)CC2)c(=O)c2ccccc21	-1%	20%[46.1 µM]	-2%	·	-2%	·	5%	13%
COc1ccc(/C=N\NC(=O)c2ccc([N+](=O)[O-])c(C)c2)cc1COc1ccccc1C(N)=O	2%	?	?	·	3%	·	-8%	-1%
C#CCNC(=O)c1ccc(OCc2ccccc2)cc1Cl	-7%	16%[46.1 µM]	17%	·	-18%	·	1%[46.1 µM]	·
O=C(c1ccccc1C(=O)N1CCN(c2ccc(F)cc2)CC1)N1CCN(c2ccc(F)cc2)CC1	?	?	22µM*	?	17%	-2.5%	?	-11%
O=C(O)C1C2CCC(O2)C1C(=O)Nc1ccc(Cl)cc1F (stereo not given)	2%	?	0%	·	?	·	0%[46.1 µM]	?
NS(=O)(=O)c1ccc(Nc2ccccc2)c([N+](=O)[O-])c1	-1%	·	-5%	·	-11%	·	·	1%
O=C(CN1C(=O)NC2(CCCC2)C1=O)Nc1ccc(C(F)(F)F)cc1	-3%	4%[46.1 µM]	2%	·	0%	·	?	4%
CCOC(=O)N1CCN(C(=O)CSc2nnc(-c3cccc(OC)c3)o2)CC1	8%	-20%&-1%	-23%	23%	-10%	0.0%	-24%	-5%
NC(=O)COc1cc2oc(=O)c3c(c2cc1Cl)CCCC3	-3%	·	-5%	·	-9%	·	·	-19%
CC1CCCCC1NC(=O)C1CC(=O)N(Cc2ccccc2)C1 (stereo not given)	-2%	-19%[46.1 µM]	-16%	·	-5%	·	12%[46.1 µM]	0%
CSCCCN1CCCC(CO)(Cc2ccc(F)cc2)C1 (stereo not given)	-1%	·	-11%	·	4%	·	·	-1%
O=C(O)C1C2CCC(O2)C1C(=O)Nc1ccccc1Br (stereo not given)	10%	·	8%	·	6%	·	·	12%
CCO[C@H]1OC(C(=O)N2CCN(Cc3ccc4c(c3)OCO4)CC2)=C[C@@H](c2cn(C(C)=O)c3ccccc23)[C@@H]1CCCO	1%	·	-24%	·	5%	·	·	-7%
CCOc1cc(C#N)c(NC(=O)Cn2nnc3ccccc32)cc1OCC	1%	?	15%	3%	-1%	1.4%	-20%	9%
Cc1csc(SCc2nnc(-c3ccccc3Br)o2)n1	2%	-13%	·	-3%	-21%	0.3%	-25%	-19%
Oc1nc(Nc2ccc(Cl)cc2Cl)sc1/C=C1\C=Nc2ccccc21	?	?	-6%	25µM*	-8%	-6.4%	-8%	13%
O=C(CN1CCNCC1)Nc1ccccc1Cl	1%	20%[46.1 µM]	-3%	0%	19%	-8.7%	-1%	-1%
COc1cc(/C=C2/SC(=S)N(C)C2=O)ccc1OC(=O)c1ccco1	-3%	0%[46.1 µM]	12%	-27%	-3%	-5.6%	-1%	3%
Cc1ccc(-c2nc(CSCC(=O)NC3CCN(Cc4ccccc4)CC3)c(C)o2)cc1	13%	·	?	·	4%	·	·	-9%
O=C(CCC(=O)N1CCOc2ccc(Cl)cc21)NCCCN1CCOCC1	-9%	·	-15%	·	-2%	·	·	-3%
O=C(Nc1cccc(F)c1)c1ccc2oc(=O)n(Cc3ccccc3)c2c1	·	·	?	5%	·	-4.6%	-12%[46.1 µM]	·
CC(=O)C1=C(O)C(=O)N(c2ccc(Br)cc2)C1c1ccc(Cl)cc1 (stereo not given)	1%	·	7%	·	10%	·	·	-4%
Cc1cccc(CN2CCCC(C(=O)Nc3ccc(-c4cscn4)cc3)C2)c1 (stereo not given)	-3%	?	-17%	·	-1%	·	?	-2%
CCOc1cc(NC(=S)NCCCN2CCOCC2)c(OCC)cc1NC(=O)c1cccc(C)c1	-2%	0%	-2%	·	-9%	·	6%	3%
COc1ccccc1NC(=O)CSc1nnc(-c2ccoc2C)n1CCc1ccccc1	-8%	-10%	-17%	12%	3%	-1.0%	-17%	-58%
CCOCCn1c(SCc2ccc(F)cc2)nc2c1c(=O)[nH]c(=O)n2C	-3%	·	-7%	7%	0%	-1.8%	·	-4%
Cc1ccc(NC(=O)[C@H](C)NC(=O)C2CCN(C(=O)[C@@H](N)CC(C)C)CC2)cc1	2%	·	-5%	·	-13%	·	·	7%
CC(=O)c1sc(Nc2ccc(C)cc2)nc1C	-5%	13%[46.1 µM]	18%	·	-23%	·	2%	·

(continued)
SMILES	SARS PLP yeast	Marburg entry inh	StopGo reporter	Cruzain noTriton	RE007 growth inh	Cruzain Triton	LASV entry inh	NS1 inh
CCCN(CCC)S(=O)(=O)c1ccc(C(=O)Nc2ccc(OCC(=O)N3CCOCC3)cc2)cc1	10%	6%	?	?	11%[3.69 µM]	-2.0%	?	-5%
COc1ccc(-c2ccc(C(=S)N3CCN(C(C)=O)CC3)o2)cc1	-5%	-4%	·	9%	5%	-28%	?	-16%
COc1ccccc1-c1nnc2sc(-c3cc4ccccc4o3)nn12	-2%	?	-26%	?	-24%	-1.6%	-6%	-74%
CCOC(=O)c1ccc(OCc2c(C)noc2C)cc1	-5%	-12%[46.1 µM]	6%	10%	-13%	2.3%	-12%	-49%
O=C(NCc1cccs1)c1ccc2c(c1)sc1nc(-c3ccc(F)cc3)cn12	·	·	-7%	7%	·	-1.4%	-23%[46.1 µM]	·
COc1ccc(N2CCN(C(=O)Cc3ccc(Br)cc3)CC2)cc1	-4%	·	-32%	·	-2%	·	·	?
COC(=O)c1c(C)oc(C)c1S(=O)(=O)NC(c1ccccc1)c1ccccc1	-6%	-26%[46.1 µM]	-18%	·	1%	·	8%[46.1 µM]	-3%
Cc1ccccc1Nc1nc(N)nc(CN(C)c2ccccc2)n1	-1%	6%	6%	-26%	11%	1.9%	0%	7%
O=C1Nc2ccccc2C(=O)N2[C@H](c3ccccc3)[C@@H]3C(=O)N(Cc4ccccc4)C(=O)[C@@H]3[C@H]12	3%	·	-20%	·	-10%	·	·	-10%
O=C(NCCc1cccc(Cl)c1)c1ccc(Cl)c([N+](=O)[O-])c1	-50%	?	-2%	-18%	-13%	-5.5%	?	-40%
O=C(O)CCSCCC(=O)O	1%	17%	-6%	-2%	-11%	3.0%	1%	2%
COc1ccc(S(=O)(=O)N2CCOCC2)cc1NC(=O)CCNC(=O)c1ccc(Cl)cc1	29%	·	4%	·	3%	·	?	·

Screening results deposited in PubChem by National Center for Advancing Translational Sciences (NCATS).
